# UUG fidelity – modulators of yeast start codon fidelity, primary screen, whole organism, S. cerevisiae, single point, plate reader. S. cerevisiae UUG-firefly luciferase reporter, luminescence/redox ratio. activity score, % at 18.7 µM. 350,000 compounds, 0.13% hits. AID 602363, 2012;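 active = replicate mean at a twofold rise or more, about +100% in these data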;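 note: firefly luciferase made from a UUG start codon reports start codon fidelity; reporter light over untreated wells divided by growth signal over untreated wells; some hits fall short of that in this replicate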
# HIV Env fusion – inhibitors of HIV-1 Env-driven cell-cell fusion, primary screen, HeLa-JRFL effector, CEM21 target cells, luciferase; inhibition, % at 12.3 µM; 360,000 compounds, 1.1% hits; AID 651610, 2012;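 active = mean replicate inhibition score of at least 50 and every replicate individually at or above 50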;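 note: 0% = plate neutral controls and 100% = maraviroc near 300 nM; one replicate is shown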
# * = called active by the depositor; [ ] = dose if it differs, or a comment. A portion of the library. The share of hits here may be higher or lower than overall.
mol | UUG fidelity | HIV Env fusion
C[C@H](CO)N1C[C@H](C)[C@@H](CN(C)S(=O)(=O)c2cn(C)cn2)OCCCC[C@H](C)Oc2ccc(NC(=O)c3ccccc3)cc2C1=O | -11 | 3[16.7 µM]
CCCc1cn(CC[C@H]2CC[C@@H](NC(=O)C3CCCCC3)[C@H](CO)O2)nn1 | -21 | -4[16.7 µM]
C[C@@H]1CCCCO[C@H](CN(C)S(=O)(=O)c2cccs2)[C@H](C)CN([C@@H](C)CO)C(=O)c2cc(NS(=O)(=O)c3ccccc3)ccc2O1 | -5 | -9[16.7 µM]
C[C@@H]1CN([C@@H](C)CO)C(=O)c2cc(C#CCN(C)C)cnc2O[C@@H]1CN(C)Cc1cccc(F)c1 | 3 | 5[16.7 µM]
C[C@@H]1CN([C@H](C)CO)C(=O)c2cc(NC(=O)Nc3ccc(C(F)(F)F)cc3)ccc2O[C@@H](C)CCCCO[C@H]1CN(C)Cc1ccccc1 | 7 | 66*[16.7 µM]
C[C@@H]1CN([C@H](C)CO)S(=O)(=O)c2ccc(C#Cc3cccnc3)cc2O[C@@H]1CN(C)C(=O)C1CC1 | 7 | -2[16.7 µM]
C[C@H](CO)N1C[C@H](C)[C@H](CN(C)S(=O)(=O)c2cn(C)cn2)Oc2c(NC(=O)c3cnccn3)cccc2C1=O | -9 | 12[16.7 µM]
CCOC(=O)c1ccc(NC(=O)O[C@H]2[C@H](OC(=O)Nc3ccccc3)[C@@H](OC(=O)Nc3ccccc3)[C@@H](OC)O[C@@H]2CO)cc1 | -9 | -96[16.7 µM]
C[C@H](CO)N1C[C@H](C)[C@H](CN(C)C(=O)Nc2ccccc2)Oc2ccc(NC(=O)Nc3ccc4c(c3)OCO4)cc2CC1=O | -2 | -23[16.7 µM]
C[C@@H]1CN([C@@H](C)CO)C(=O)c2cc(/C=C/c3ccccc3)cnc2O[C@@H]1CN(C)C(=O)C1CCC1 | 12 | -6[16.7 µM]
Cc1noc(C)c1S(=O)(=O)Nc1ccc2c(c1)CC(=O)N([C@@H](C)CO)C[C@@H](C)[C@@H](CN(C)C(=O)Nc1ccc(C(F)(F)F)cc1)O2 | -8 | 0[16.7 µM]
CC(C)NC(=O)Nc1cccc2c1O[C@@H](CN(C)Cc1ccc(-c3ccccc3)cc1)[C@@H](C)CN([C@@H](C)CO)C2=O | 1 | -1[16.7 µM]
COc1ccc(S(=O)(=O)N(C)C[C@@H]2Oc3ccc(NC(=O)NC(C)C)cc3C(=O)N([C@H](C)CO)C[C@@H]2C)cc1 | -6 | -14[16.7 µM]
COc1ccc(NC(=O)N(C)C[C@H]2OCCCC[C@@H](C)Oc3ccc(NS(=O)(=O)c4ccc(Cl)cc4)cc3C(=O)N([C@H](C)CO)C[C@H]2C)cc1 | -2 | -7[16.7 µM]
C[C@@H]1CCCCO[C@H](CN(C)S(=O)(=O)c2cccs2)[C@@H](C)CN([C@@H](C)CO)C(=O)c2cc(NS(=O)(=O)c3cn(C)cn3)ccc2O1 | -4 | -12[16.7 µM]
COc1ccc(S(=O)(=O)Nc2ccc3c(c2)CC(=O)N([C@@H](C)CO)C[C@H](C)[C@@H](CN(C)S(=O)(=O)c2c(C)noc2C)O3)cc1 | 13 | -5[16.7 µM]
CC(=O)N(C)C[C@H]1Oc2cc(C#C[C@@H](C)O)ccc2S(=O)(=O)N([C@@H](C)CO)C[C@H]1C | -6 | -19[16.7 µM]
C[C@@H]1CN([C@@H](C)CO)C(=O)c2cc(NC(=O)c3ccccc3)ccc2O[C@@H](C)CCCCO[C@@H]1CN(C)C(=O)CCCN(C)C | 0 | 17[16.7 µM]
CC(=O)N(C)C[C@H]1Oc2cc(C#Cc3ccccc3)ccc2S(=O)(=O)N([C@@H](C)CO)C[C@H]1C | 8 | 9[16.7 µM]
C[C@@H]1CN([C@H](C)CO)C(=O)c2cccc(NC(=O)Nc3ccc(C(F)(F)F)cc3)c2O[C@@H]1CN(C)C(=O)NC1CCCCC1 | 6 | -39[16.7 µM]
COc1ccc(NC(=O)Nc2ccc3c(c2)CC(=O)N([C@H](C)CO)C[C@H](C)[C@H](CN(C)Cc2ccccc2)O3)cc1 | -5 | 41[16.7 µM]
O=C(Nc1ccc2c(c1)[C@H]1C[C@@H](CC(=O)N3CCOCC3)O[C@@H](CO)[C@H]1O2)c1cccnc1 | 11 | -8[16.7 µM]
Cc1noc(C)c1NC(=O)Nc1ccc2c(c1)C(=O)N([C@@H](C)CO)C[C@H](C)[C@@H](CN(C)S(=O)(=O)c1ccc(F)cc1)OCCCC[C@H](C)O2 | -19 | -9[16.7 µM]
COCC#Cc1cnc2c(c1)C(=O)N([C@@H](C)CO)C[C@@H](C)[C@H](CN(C)C(=O)C1CCOCC1)O2 | 23 | 3[16.7 µM]
N#C[C@H]1[C@H](c2ccccc2)[C@@H](CO)N1C(=O)CN1CCOCC1 | -7 | 8[16.7 µM]
C[C@H](CO)N1C[C@H](C)[C@H](CN(C)C(=O)CC2CC2)Oc2cc(C#CCN(C)C)ccc2S1(=O)=O | 4 | -10[16.7 µM]
C[C@@H]1CN([C@@H](C)CO)C(=O)c2cc(-c3ccc(F)cc3)cnc2O[C@H]1CN(C)Cc1cccnc1 | -9 | -5[16.7 µM]
CNC[C@H]1Oc2ccc(NS(C)(=O)=O)cc2C(=O)N([C@@H](C)CO)C[C@@H]1C | -36 | -12[16.7 µM]
CCCNC(=O)Nc1ccc2c(c1)OC[C@H](C)N(CC1CCCC1)C[C@@H](C)[C@H](OC)CN(C)C2=O | 10 | 3[16.7 µM]
O=C(N[C@@H]1CC[C@@H](CC(=O)N2CCN(c3ccccc3)CC2)O[C@H]1CO)c1ccccc1 | 3 | -9[16.7 µM]

# Going on with the list.
mol | UUG fidelity | HIV Env fusion
COCC(=O)N(C)C[C@@H]1Oc2cc(C#CC(C)(C)O)ccc2S(=O)(=O)N([C@H](C)CO)C[C@H]1C | 1 | -9[16.7 µM]
COc1ccc(S(=O)(=O)Nc2ccc3c(c2)C(=O)N([C@H](C)CO)C[C@@H](C)[C@@H](CN(C)S(=O)(=O)c2ccc(C)cc2)OCCCC[C@H](C)O3)cc1 | 7 | -39[16.7 µM]
CC(C)C#Cc1ccc2c(c1)O[C@H](CN(C)Cc1cncnc1)[C@@H](C)CN([C@@H](C)CO)S2(=O)=O | -3 | 3[16.7 µM]
CCc1cnc(N2[C@@H](C#N)[C@@H](c3ccccc3)[C@@H]2CO)s1 | 5 | 3[16.7 µM]
CCCC[C@]12CCCC(=O)N1CCc1c2[nH]c2ccccc12 | 4 | -1[16.7 µM]
C[C@@H]1CN([C@@H](C)CO)C(=O)c2cc(NC(=O)CCC(F)(F)F)ccc2O[C@@H](C)CCCCO[C@H]1CN(C)Cc1ccncc1 | 13 | -4[16.7 µM]
CO[C@@H]1CN(C)C(=O)c2cc(NS(=O)(=O)CC(F)(F)F)ccc2OC[C@H](C)N(CCC(F)(F)F)C[C@@H]1C | -9 | -25[16.7 µM]
C[C@@H]1CN([C@@H](C)CO)C(=O)c2cc(N(C)C)ccc2O[C@@H](C)CCCCO[C@@H]1CN(C)C(=O)Nc1ccc(F)cc1 | 9 | -10[16.7 µM]
C[C@H](CO)N1C[C@H](C)[C@H](CN(C)C(=O)Nc2ccc3c(c2)OCO3)Oc2ccc(NC(=O)Cc3ccccc3)cc2C1=O | -4 | -20[16.7 µM]
C[C@@H]1CN([C@@H](C)CO)C(=O)Cc2cc(NC(=O)Cc3ccccc3)ccc2O[C@H]1CN(C)Cc1ccc(Cl)c(Cl)c1 | 8 | 15[16.7 µM]
COc1ccc(NC(=O)Nc2ccc3c(c2)C(=O)N([C@@H](C)CO)C[C@@H](C)[C@@H](CN(C)C(=O)CCC(F)(F)F)OCCCC[C@H](C)O3)cc1 | 13 | 15[16.7 µM]
C[C@@H]1CN([C@H](C)CO)S(=O)(=O)c2ccc(C3=CCCCC3)cc2O[C@H]1CN(C)C(=O)C1CCC1 | -1 | 5[16.7 µM]
COc1cccc(NC(=O)C[C@@H]2CC[C@@H]3[C@H](COc4ccc(NC(=O)C5CCCCC5)cc4C(=O)N3C)O2)c1 | -4 | -20[16.7 µM]
CC(C)NC(=O)N(C)C[C@@H]1Oc2ccc(NC(=O)Cn3cnnn3)cc2CC(=O)N([C@@H](C)CO)C[C@@H]1C | -1 | 9[16.7 µM]
COCC#Cc1ccc2c(c1)O[C@@H](CN(C)S(C)(=O)=O)[C@H](C)CN([C@H](C)CO)S2(=O)=O | 7 | 5[16.7 µM]
COc1cccc(-c2ccc3c(c2)O[C@@H](CN(C)C(C)=O)[C@H](C)CN([C@@H](C)CO)S3(=O)=O)c1 | 15 | 7[16.7 µM]
COc1ccc(S(=O)(=O)N(C)C[C@@H]2Oc3c(NS(=O)(=O)c4c(C)noc4C)cccc3C(=O)N([C@@H](C)CO)C[C@@H]2C)cc1 | -5 | 11[16.7 µM]
C[C@@H]1CN([C@H](C)CO)C(=O)Cc2cc(NC(=O)C3CCCCC3)ccc2O[C@@H]1CN(C)S(C)(=O)=O | 15 | 2[16.7 µM]
Cc1ccc(S(=O)(=O)N(C)C[C@H]2OCCCC[C@H](C)Oc3ccc(NC(=O)Nc4ccc(C(F)(F)F)cc4)cc3C(=O)N([C@@H](C)CO)C[C@H]2C)cc1 | -4 | -13[16.7 µM]
O=C(C[C@H]1C[C@H]2c3cc(NC(=O)Cc4ccncc4)ccc3O[C@H]2[C@@H](CO)O1)NCc1ccc2c(c1)OCO2 | -16 | -2[16.7 µM]
COc1ccc(-c2cnc3c(c2)C(=O)N([C@@H](C)CO)C[C@@H](C)[C@H](CN(C)C)O3)cc1 | -5 | -16[16.7 µM]
CO[C@@H]1CN(C)C(=O)c2cc(NC(=O)Nc3ccccc3)ccc2OC[C@H](C)N(C(C)=O)C[C@H]1C | 39 | -20[16.7 µM]
COc1ccc(S(=O)(=O)N(C)C[C@H]2Oc3c(NS(=O)(=O)c4ccc(Cl)cc4)cccc3C(=O)N([C@H](C)CO)C[C@@H]2C)cc1 | -12 | -88[16.7 µM]
O=C(Nc1ccc(F)cc1)Nc1ccc2c(c1)[C@@H]1C[C@H](CC(=O)N3CCCCC3)O[C@@H](CO)[C@@H]1O2 | 0 | 75*[16.7 µM]
O=C(Cn1cc(CN2C(=O)COC[C@H]2c2ccccc2)nn1)Nc1nccs1 | 34 | -21[16.7 µM]
CC(=O)Nc1ccc2c(c1)C(=O)N(C)[C@H]1CC[C@@H](CC(=O)NC3CCCCC3)O[C@@H]1CO2 | -14 | 8[16.7 µM]
Cc1noc(C)c1NC(=O)N[C@H]1CC[C@@H](CCNC(=O)C2CCCCC2)O[C@@H]1CO | -12 | -6[16.7 µM]
Cc1ccc(S(=O)(=O)Nc2ccc3c(c2)C(=O)N([C@@H](C)CO)C[C@@H](C)[C@@H](CN(C)C(=O)Nc2ccccc2)OCCCC[C@@H](C)O3)cc1 | -4 | -55[16.7 µM]
Cc1noc(C)c1S(=O)(=O)Nc1ccc2c(c1)C(=O)N([C@H](C)CO)C[C@H](C)[C@@H](CN(C)CC1CCCCC1)OCCCC[C@H](C)O2 | 13 | -16[16.7 µM]
C[C@@H]1CN([C@H](C)CO)C(=O)c2cccc(NC(=O)C3CC3)c2O[C@@H]1CN(C)C(=O)Nc1ccc(F)cc1 | 8 | -53[16.7 µM]

# For convenience, part of the list above:
mol | UUG fidelity | HIV Env fusion
O=C(Cn1cc(CN2C(=O)COC[C@H]2c2ccccc2)nn1)Nc1nccs1 | 34 | -21[16.7 µM]
CC(=O)Nc1ccc2c(c1)C(=O)N(C)[C@H]1CC[C@@H](CC(=O)NC3CCCCC3)O[C@@H]1CO2 | -14 | 8[16.7 µM]
Cc1noc(C)c1NC(=O)N[C@H]1CC[C@@H](CCNC(=O)C2CCCCC2)O[C@@H]1CO | -12 | -6[16.7 µM]
Cc1ccc(S(=O)(=O)Nc2ccc3c(c2)C(=O)N([C@@H](C)CO)C[C@@H](C)[C@@H](CN(C)C(=O)Nc2ccccc2)OCCCC[C@@H](C)O3)cc1 | -4 | -55[16.7 µM]
Cc1noc(C)c1S(=O)(=O)Nc1ccc2c(c1)C(=O)N([C@H](C)CO)C[C@H](C)[C@@H](CN(C)CC1CCCCC1)OCCCC[C@H](C)O2 | 13 | -16[16.7 µM]
C[C@@H]1CN([C@H](C)CO)C(=O)c2cccc(NC(=O)C3CC3)c2O[C@@H]1CN(C)C(=O)Nc1ccc(F)cc1 | 8 | -53[16.7 µM]

# Carrying on.
mol | UUG fidelity | HIV Env fusion
C[C@H](CO)N1C[C@H](C)[C@@H](CN(C)C(=O)Nc2ccc3c(c2)OCO3)Oc2ccc(NS(C)(=O)=O)cc2CC1=O | 5 | -26[16.7 µM]
COc1ccc(NC(=O)N(C)C[C@@H]2Oc3ncc(C#C[C@@H](C)O)cc3C(=O)N([C@H](C)CO)C[C@H]2C)cc1 | -17 | 1[16.7 µM]
C[C@@H]1CN([C@@H](C)CO)S(=O)(=O)c2ccc(C#CC3(O)CCCC3)cc2O[C@H]1CN(C)C(=O)Cc1cccnc1 | -1 | -4[16.7 µM]
C[C@H]1CN([C@@H](C)CO)C(=O)c2cc(/C=C/c3ccccc3)cnc2O[C@@H]1CN(C)S(C)(=O)=O | -4 | 18[16.7 µM]
CCCC#Cc1ccc2c(c1)O[C@H](CN(C)C(=O)C1CCCCC1)[C@H](C)CN([C@@H](C)CO)S2(=O)=O | 27 | -19[16.7 µM]
COc1ccc(NC(=O)N(C)C[C@H]2Oc3c(NS(=O)(=O)c4ccc(Cl)cc4)cccc3C(=O)N([C@H](C)CO)C[C@H]2C)cc1 | -1 | -47[16.7 µM]
C[C@@H]1CN([C@@H](C)CO)S(=O)(=O)c2ccc(C3=CCCC3)cc2O[C@H]1CN(C)C(=O)C1CCOCC1 | 1 | -8[16.7 µM]
O=S(=O)(NC1CCN(Cc2ccc(OCCO)cc2)CC1)c1cc(C(F)(F)F)ccc1Cl | 2 | -7[16.7 µM]

# Source: PubChem BioAssay
